Rango complex inh: qHTS Assay for Inhibitors of Rango (Ran-regulated importin-beta cargo) - Importin beta complex formation; Rango CFP/YFP FRET sensor + importin beta, 45 min; AID 540263, 2011; 0.031% of 340,000 active; Potency, µM (highest dose often 92.2 µM), inactives show at the highest dose inhibition of complex formation; active = rising FRET ratio curve, often small or poorly fitted; inconclusive = mostly compound fluorescence or quenching in the first reads; inactive = flat curves in all reads;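 note: potency is the fitted concentration of half-maximal effect; 0% = DMSO wells and 100% = buffer wells lacking importin beta; nearly all actives have a fitted effect of over 15% in size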
Target sequence (Q14974 whole entry, looked up): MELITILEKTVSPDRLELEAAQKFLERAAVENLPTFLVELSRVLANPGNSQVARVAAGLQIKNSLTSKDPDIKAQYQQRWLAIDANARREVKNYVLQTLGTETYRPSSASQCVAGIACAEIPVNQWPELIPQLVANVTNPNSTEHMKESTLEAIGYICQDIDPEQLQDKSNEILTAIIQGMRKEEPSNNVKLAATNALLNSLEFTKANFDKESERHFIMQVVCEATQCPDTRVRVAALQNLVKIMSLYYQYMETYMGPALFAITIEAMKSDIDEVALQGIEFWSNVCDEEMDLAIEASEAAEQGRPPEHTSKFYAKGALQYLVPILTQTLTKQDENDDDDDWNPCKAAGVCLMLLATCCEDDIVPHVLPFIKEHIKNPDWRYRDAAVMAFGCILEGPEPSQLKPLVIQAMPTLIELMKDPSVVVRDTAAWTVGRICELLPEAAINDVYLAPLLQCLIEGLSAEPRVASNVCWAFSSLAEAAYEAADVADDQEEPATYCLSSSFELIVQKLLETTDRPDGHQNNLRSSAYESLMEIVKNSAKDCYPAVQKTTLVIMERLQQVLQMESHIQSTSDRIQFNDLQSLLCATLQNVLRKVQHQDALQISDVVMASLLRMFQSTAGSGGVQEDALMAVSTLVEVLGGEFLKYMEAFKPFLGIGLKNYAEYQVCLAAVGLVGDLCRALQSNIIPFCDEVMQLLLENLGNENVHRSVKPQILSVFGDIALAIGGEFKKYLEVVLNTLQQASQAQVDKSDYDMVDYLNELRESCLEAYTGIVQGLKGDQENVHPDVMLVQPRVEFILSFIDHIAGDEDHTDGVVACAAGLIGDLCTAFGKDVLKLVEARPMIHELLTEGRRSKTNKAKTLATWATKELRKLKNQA
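Inhibition scored from the CFP 486 nm/YFP 530 nm FRET ratio 45 min after adding 0.125 microM importin beta to 50 nM Rango biosensor preincubated 5 min with compound (room temperature, PBS with DTT, Tween-20, BSA). No-importin wells as positive control.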
GLA inh pH 4.5: qHTS Assay for Inhibitors of Human alpha-Galactosidase at pH 4.5 | purified enzyme, 4-MU-alpha-Gal fluorescence, pH 4.5 | activity change, negative = inhibition, % at 105 µM | 230,000 tested, under 10 active | AID 1467, 2008; inconclusive = small, poorly fitted or top-dose-only inhibition, or a rising curve; inactive = flat fitted curve, though single readings scatter; no compound was filed as active;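 note: 0% = full activity with enzyme and -100% = basal without enzyme; dose as in the result columns while the protocol names 77 µM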
Rango dissoc inh: qHTS Assay for Inhibitors of RanGTP induced Rango (Ran-regulated importin-beta cargo) - Importin beta complex dissociation; Snurportin-1 (Homo sapiens) + GTP-binding nuclear protein Ran (Homo sapiens) + Importin …; Biochemical FRET Rango-importin beta, RanGTP-induced dissociation; Potency, µM (doses to about 46.1 µM), for inactives: at the top dose activity change, negative = inhibition; 0.071% of 340,000 active; active means falling FRET ratio curve, often poorly fitted, with flat reads before Ran was added; inconclusive means other falling curves, or compound fluorescence or quenching; inactive means flat or rising ratio curve;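 note: potency is the fitted concentration of half-maximal effect; % of control where 0% means no effect; nearly all actives have a fitted effect of over 45% in size; -100% = wells without RanGTP and RCC1; the record marks most hits as doubtful in a second field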
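Quantitative HTS using a FRET biosensor: 0.1 uM Rango, 0.25 uM importin beta, 0.6 uM Ran, 2 mM GTP, 0.2 uM RCC1 final, PBS with DTT, Tween-20 and BSA. Post-read taken 45 min after Ran addition.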
miR-21 FLuc: qHTS Assay for Modulators of miRNAs and/orActivators of miR-21; HeLa miR-21 FLuc reporter, luciferase, 48 h; Potency, µM (top dose mostly 38.3 µM), without a hit: at the top dose reporter change, positive = more light; 340,000 tested, under 10 active; active = well fitted rising curve with a large enough effect; inconclusive = small, poorly fitted or top-dose-only effect; inactive = no such curve, though single readings can be large or run the other way;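 note: % of control where 0% means no effect; miR-21 action dims this reporter so a rising signal means less miR-21 action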
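Luminescence from a firefly luciferase reporter carrying a miR-21 binding site downstream, stably expressed under a CMV promoter in HeLa cells that make miR-21 endogenously, reports miRNA modulation after 48 h compound exposure up to approximately 40uM final.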
Active calls of the source: *; & = joins results of further samples.

`COCCCN1C(=O)N(c2ccccc2)C(=O)C1CC(=O)Nc1ccc(F)cc1` (configuration not stated) gave Rango complex inh -0.1%, Rango dissoc inh 0% and miR-21 FLuc 1%&0%.
CCOC(=O)c1c(C)n(C)c2ccc(OCC(O)CNCCc3ccccc3)cc12 (configuration not stated) was read as Rango complex inh -1.0%, Rango dissoc inh 14% and miR-21 FLuc -3%.
O=C(C1=C[C@H](c2csc3ccccc23)C[C@H](OCCCCO)O1)N1CCN(Cc2ccc3c(c2)OCO3)CC1 was read as Rango complex inh -5.8%, GLA inh pH 4.5 -13, Rango dissoc inh -23% and miR-21 FLuc 9%.
`O=C(NCC(c1ccccc1Cl)N1CCCC1)c1ccc(N2CCCC2=O)cc1` (configuration not stated) gave Rango complex inh inconclusive and Rango dissoc inh 10%.
For S=C(Nc1cccnc1)NC1CC2CCC1C2 (configuration not stated) the results were Rango complex inh -6.0%, Rango dissoc inh -4% and miR-21 FLuc 8%.
For O=C(CNC(=O)c1ccco1)OCc1ccccc1F the results were Rango complex inh -1.3% and Rango dissoc inh 17%.
Screening O=C(Nc1ccccc1Cc1ccccc1)C1CC(=O)N(c2ccc3c(c2)OCCO3)C1 (configuration not stated) returned Rango complex inh -1.4%, GLA inh pH 4.5 -1, Rango dissoc inh -3% and miR-21 FLuc -13%.
`NC(=S)N/N=C1\CC(n2nnn(-c3cccc(Cl)c3)c2=S)C2COC1O2` (configuration not stated) gave Rango complex inh 2.4%, GLA inh pH 4.5 -17, Rango dissoc inh 1% and miR-21 FLuc 0%.
`Nc1c(C(=O)OCC(=O)Nc2ccc(Cl)cc2[N+](=O)[O-])[nH]c(=O)[nH]c1=O` gave Rango complex inh -4.2%, GLA inh pH 4.5 5, Rango dissoc inh 3% and miR-21 FLuc -5%.
Screening Cc1ccc(C)n1NC(=O)c1cccc(Cl)c1 returned Rango complex inh -1.9%, GLA inh pH 4.5 6, Rango dissoc inh -17% and miR-21 FLuc -2%.
`COc1ccccc1CCn1c(N)cc(=O)[nH]c1=O` gave Rango complex inh -0.4%, Rango dissoc inh 8% and miR-21 FLuc -1%.
Cc1ccc(/C([O-])=C(/C(=S)NCc2ccccc2)[n+]2ccccc2)cc1[N+](=O)[O-] was read as Rango complex inh -0.5%, GLA inh pH 4.5 0, Rango dissoc inh 0% and miR-21 FLuc -5%.
Screening COC(=O)c1c(NC(=O)/C=C/c2ccco2)sc2c1CCC2 returned Rango complex inh 2.8%, GLA inh pH 4.5 -1, Rango dissoc inh -4% and miR-21 FLuc -1%.
COC(=O)c1ccc(C)c(NC(=O)CCSc2ccc(C)cc2)c1 was read as Rango complex inh inconclusive, GLA inh pH 4.5 5, Rango dissoc inh -13% and miR-21 FLuc 3%.
Screening COC(=O)c1[nH]c2ccc(F)cc2c1NS(=O)(=O)c1ccc(OC)cc1OC returned Rango complex inh 2.4%, GLA inh pH 4.5 -7, Rango dissoc inh 1% and miR-21 FLuc -11%.
`N#Cc1nc(COc2cccc(Cl)c2)oc1N1CCN(c2ccccc2)CC1` gave Rango complex inh -0.6%, GLA inh pH 4.5 3, Rango dissoc inh 6% and miR-21 FLuc -4%.
For CCCC1(c2ccccc2)NC(=O)N(CC(=O)Nc2cc(S(=O)(=O)N3CCOCC3)ccc2Cl)C1=O (configuration not stated) the results were Rango complex inh -3.8%, GLA inh pH 4.5 -14, Rango dissoc inh 9% and miR-21 FLuc -1%.
For COc1ccc(Oc2nc(OC)cc(OC)n2)cc1 the results were Rango complex inh 0.6%, GLA inh pH 4.5 8, Rango dissoc inh 0% and miR-21 FLuc 8%.
For Cc1ccccc1C(=O)NC1CCN(C(=O)N2CCOCC2)CC1 the results were Rango complex inh inconclusive, GLA inh pH 4.5 0, Rango dissoc inh 1% and miR-21 FLuc -14%.
Cc1ccc2c(c1)COc1c3ccc(C(=O)NC(C)C)cc3nn1-2 was read as Rango complex inh -5.0%, GLA inh pH 4.5 3, Rango dissoc inh 12% and miR-21 FLuc -16%.
For O=C(NN=Cc1c(O)ccc2ccccc12)c1ccc2c(c1)OCO2 the results were Rango complex inh inconclusive and Rango dissoc inh inconclusive.
O=C1OC(c2ccc(Cl)cc2)=N/C1=C\C=C\c1ccco1 was read as Rango complex inh -0.7%, GLA inh pH 4.5 -16, Rango dissoc inh 0% and miR-21 FLuc -1%.
For O=C(CN(c1cccc([N+](=O)[O-])c1)S(=O)(=O)c1ccccc1)NCc1ccccc1 the results were Rango complex inh -0.6%, GLA inh pH 4.5 9, Rango dissoc inh 1% and miR-21 FLuc 1%.
For O=C1N(Cc2cccc(Cl)c2)C[C@@H]2C[C@@H](c3ccco3)N3CCC[C@@]123 the results were Rango complex inh 0.0%, GLA inh pH 4.5 1, Rango dissoc inh 4% and miR-21 FLuc -7%.
Screening CC(=O)Nc1cc(C(=O)N2CCCC2)ccc1Sc1ccc(C)cc1 returned Rango complex inh 0.6%, GLA inh pH 4.5 8, Rango dissoc inh 10% and miR-21 FLuc 23%.
For COc1ccc(NC(=O)COC(=O)Cc2ccsc2)c(OC)c1 the results were Rango complex inh 0.9% and Rango dissoc inh -15%.
Screening CCCCn1c(SCC(=O)NC(C)(C)C)nnc1-c1ccco1 returned Rango complex inh 0.3%, GLA inh pH 4.5 6, Rango dissoc inh 4% and miR-21 FLuc -4%.
`CCOc1ccc(NS(=O)(=O)c2ccc3c(c2)CCN3C(=O)CCC(=O)O)cc1` gave Rango complex inh 1.9%, GLA inh pH 4.5 5, Rango dissoc inh -5% and miR-21 FLuc -1%.
For Cc1cccc(S(=O)(=O)Nc2ccc3c(c2)OCCO3)c1 the results were Rango complex inh -0.5%, GLA inh pH 4.5 1, Rango dissoc inh 0% and miR-21 FLuc 0%.
CN(CCNC(=O)c1c[nH]c2c1ccc1ccccc12)CCNC(=O)c1c[nH]c2c1ccc1ccccc12 was read as Rango complex inh -6.2% and Rango dissoc inh -8%.
For O=C1c2cccc3cccc(c23)N1CN1CCN(c2ccccn2)CC1 the results were Rango complex inh inconclusive, GLA inh pH 4.5 5, Rango dissoc inh -15% and miR-21 FLuc -20%.
Screening O=C(NC1CCCCC1)N1CCN(S(=O)(=O)c2ccc(F)cc2)CC1 returned Rango complex inh 1.4%, GLA inh pH 4.5 2, Rango dissoc inh -1% and miR-21 FLuc -2%.
Cc1ccc(C(=O)N(C)c2nnc(-c3ccncc3)s2)cc1 was read as Rango complex inh -0.4%, GLA inh pH 4.5 4, Rango dissoc inh 7% and miR-21 FLuc -19%.
`Cc1cc(Nc2ccc(Br)cc2)nc(-c2ccccc2O)n1` gave Rango complex inh -0.4%, Rango dissoc inh 8% and miR-21 FLuc 1%.
Cc1ccc(-c2noc(CSc3nnc(-c4cccs4)n3C)n2)cc1 was read as Rango complex inh 7.3%, GLA inh pH 4.5 -3, Rango dissoc inh 15% and miR-21 FLuc 1%.
Cn1c(N)c(C(=O)COC(=O)C2(c3cccc(F)c3)CCCC2)c(=O)n(C)c1=O was read as Rango complex inh -2.2%, GLA inh pH 4.5 -5, Rango dissoc inh -8% and miR-21 FLuc 17%.
`CCOC(=O)/C(C#N)=C1/C=CN(C)C(C)=N1` gave Rango complex inh -2.3%, GLA inh pH 4.5 4, Rango dissoc inh -4% and miR-21 FLuc -1%.
For Cc1ccc2nc(SCc3nc4ccccc4c(=O)[nH]3)[nH]c2c1 the results were Rango complex inh inconclusive, GLA inh pH 4.5 1, Rango dissoc inh inconclusive and miR-21 FLuc -51%.
`CCCCn1c(SCC(=O)NC2CC2)nc2ccccc2c1=O` gave Rango complex inh 3.0%, Rango dissoc inh 2% and miR-21 FLuc -2%.
Screening COc1ccc2[nH]c3nc(SCc4nnc(-c5ccc(C)cc5)o4)nnc3c2c1 returned Rango complex inh -0.8%, GLA inh pH 4.5 0, Rango dissoc inh -8% and miR-21 FLuc -9%.
Screening COc1cccc(C(=O)N(C)CC(=O)Nc2ccc(F)c(F)c2F)c1 returned Rango complex inh 1.1%, Rango dissoc inh 2% and miR-21 FLuc -5%.
`O=C(COc1ccc2ccc(=O)oc2c1)OCc1ccccc1` gave Rango complex inh 3.7%, GLA inh pH 4.5 1, Rango dissoc inh 8% and miR-21 FLuc -1%.
For Cc1nn(-c2ccc(F)cc2)c(Cl)c1/C=C/C(=O)N1CCNC(=O)C1 the results were Rango complex inh -3.1%, GLA inh pH 4.5 3, Rango dissoc inh -8% and miR-21 FLuc -20%.
FC(F)(F)c1cccc(Cc2noc(CN3CCCCC3c3ccccn3)n2)c1 (configuration not stated) was read as Rango complex inh -2.4%, GLA inh pH 4.5 1, Rango dissoc inh -10% and miR-21 FLuc 5%.
Screening CC(Sc1nncn1C)C(=O)NCCC1=CCCCC1 (configuration not stated) returned Rango complex inh 0.0% and Rango dissoc inh 32%.
For CC(=O)c1ccc(S(=O)(=O)NC2CC(=O)N(c3ccc(Cl)cc3)C2)cc1 (configuration not stated) the results were Rango complex inh 4.8% and Rango dissoc inh -24%.
`O=C(O)c1nn(CC(=O)N2CCN(c3ncc(C(F)(F)F)cc3Cl)CC2)c(=O)c2ccccc12` gave Rango complex inh 0.3%, Rango dissoc inh 0% and miR-21 FLuc 6%.
Screening CCNC(=S)N(CCc1c(C)[nH]c2ccc(C)cc12)Cc1cccnc1 returned Rango complex inh inconclusive, Rango dissoc inh -16% and miR-21 FLuc 4%.
Screening COC(=O)c1c(C)nsc1NC(=O)Oc1ccccc1 returned Rango complex inh 3.6%, GLA inh pH 4.5 6, Rango dissoc inh inconclusive and miR-21 FLuc -1%.
Screening Cc1ccc2[nH]c(-c3ccccc3)c(CN3CCOCC3)c(=O)c2c1 returned Rango complex inh inconclusive, GLA inh pH 4.5 -11, Rango dissoc inh -5% and miR-21 FLuc -7%.
COc1ccc(NC(=O)CCc2nc(-c3ccc(C)cc3)no2)cc1Cl was read as Rango complex inh inconclusive, GLA inh pH 4.5 6, Rango dissoc inh 6% and miR-21 FLuc -7%.
For CC(/C=C/c1ccco1)=N\NC(=O)c1cc(C)[nH]n1 the results were Rango complex inh -7.2%, GLA inh pH 4.5 6, Rango dissoc inh -12% and miR-21 FLuc -8%.
Screening CCCCn1c(N)c(-c2nc3ccccc3s2)c2c([N+](=O)[O-])nn(CC)c(=O)c21 returned Rango complex inh 0.2%, GLA inh pH 4.5 6, Rango dissoc inh -3% and miR-21 FLuc 0%.
CCOC(=O)C1C(=O)OC2(CCCC2)C1C(=O)OCC (configuration not stated) was read as Rango complex inh -2.5%, GLA inh pH 4.5 2, Rango dissoc inh 2% and miR-21 FLuc -4%.
Cc1cc(C)cc(N/C(N)=N/c2nc(C)cc(C)n2)c1 was read as Rango complex inh -2.3%, GLA inh pH 4.5 -9, Rango dissoc inh -15% and miR-21 FLuc 17%.
COc1ccc(NC(=O)C23CC4CC(C2)CC(c2ccc(C)cc2)(C4)C3)cc1 was read as Rango complex inh -0.3%, GLA inh pH 4.5 inconclusive, Rango dissoc inh 1% and miR-21 FLuc 12%.
For Cc1ccnc(N2CCCC(C(=O)Nc3cccc(C)c3C)C2)n1 (configuration not stated) the results were Rango complex inh 0.2%, Rango dissoc inh 26% and miR-21 FLuc -1%.
For CCOC(=O)C1=C(COC(=O)COc2ccccc2C(C)C)NC(=O)NC1C (configuration not stated) the results were Rango complex inh 1.8% and Rango dissoc inh -7%.
`COCC(C)n1c(C)cc(C(=O)COc2ccc(N(C)S(=O)(=O)c3ccc(NC(C)=O)cc3)cc2)c1C` (configuration not stated) gave Rango complex inh -1.3% and Rango dissoc inh -3%.

3 entries picked at random from those above, as already listed:
For Cc1ccnc(N2CCCC(C(=O)Nc3cccc(C)c3C)C2)n1 (configuration not stated) the results were Rango complex inh 0.2%, Rango dissoc inh 26% and miR-21 FLuc -1%.
Screening CC(Sc1nncn1C)C(=O)NCCC1=CCCCC1 (configuration not stated) returned Rango complex inh 0.0% and Rango dissoc inh 32%.
Screening COC(=O)c1c(C)nsc1NC(=O)Oc1ccccc1 returned Rango complex inh 3.6%, GLA inh pH 4.5 6, Rango dissoc inh inconclusive and miR-21 FLuc -1%.

Screens (PubChem BioAssay)

An excerpt; rates above refer to the full screens.
